FPR ligand – human FPR ligands by binding competition, primary screen, cell-based, FPRL1 counter-screen, flow cytometry | 0.74% of 24,000 active | inhibition, %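 (tested at 6.7 µM)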 | FPR-expressing cells, fluorescent ligand binding | fMet-Leu-Phe receptor (Homo sapiens), P21462;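 note: 0% = buffer wells and 100% = receptor blocker peptide wells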
Target sequence (P21462 whole entry, looked up): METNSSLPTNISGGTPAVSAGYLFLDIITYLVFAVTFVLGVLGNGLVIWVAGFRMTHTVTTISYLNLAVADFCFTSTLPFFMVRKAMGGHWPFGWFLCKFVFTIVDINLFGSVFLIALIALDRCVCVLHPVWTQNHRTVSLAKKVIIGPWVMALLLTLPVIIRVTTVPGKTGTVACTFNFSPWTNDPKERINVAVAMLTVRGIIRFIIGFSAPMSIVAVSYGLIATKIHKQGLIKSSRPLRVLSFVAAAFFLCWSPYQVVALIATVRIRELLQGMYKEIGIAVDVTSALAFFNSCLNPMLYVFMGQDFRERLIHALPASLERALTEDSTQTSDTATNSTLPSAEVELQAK
VCAM-1 down imaging – inhibitors of TNFa-induced VCAM-1 surface display, imaging, high-content imaging, pooled HUVEC, TNFa stimulus (AID 456); one-dose inhibition, % at 5 µM; IC50 in µM for titrated hits; HUVEC TNFa-induced VCAM-1 surface expression, immunofluorescence imaging; numbers were filed only for top-ranked candidate wells; 0.2% of 10,000 active;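 active = top tenth filtered wells with inhibition above zero that passed visual or statistical confirmation; inactive = the rest, including hits rejected on review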;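 note: 0% = stimulated vehicle wells and 100% = unstimulated cells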
VCAM-1 up imaging – enhancers of VCAM-1 display on endothelial cells, imaging, high-content imaging, pooled HUVEC, TNFa stimulus (AID 457); calls only; 0.2% of 10,000 active; Pooled HUVEC, TNFa-induced VCAM-1 immunofluorescence imaging; hits of this screen are not shown here;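 active = a top-ranked rise in VCAM-1 staining upheld on image or statistical review; inactive = the rest, including candidates rejected on review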;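 note: compounds tested at 5 µM in the well; cells exposed to compound for 24 hours before fixing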
VCAM-1 down – inhibitors of TNFa-induced VCAM-1 surface display, cell-based, plate reader, pooled HUVEC, TNFa stimulus (AID 454) | 0.2% of 10,000 active | inhibition, % at 5 µM | HUVEC TNFa-induced VCAM-1 surface immunofluorescence, plate reader; numbers were filed only for top-ranked candidate wells;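 active = compound among top-ranked inhibitors of TNF-induced VCAM-1 adhesion protein staining, with the hit upheld by image or statistical review; inactive = the rest, including hits rejected on review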;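 note: 0% = TNFa with vehicle and 100% = cells without TNFa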
FPRL1 ligand – human FPRL1 ligands by binding competition, primary screen, cell-based, FPR counter-screen, flow cytometry. N-formyl peptide receptor 2 (Homo sapiens), P25090. FPRL1-expressing cells, fluorescent ligand binding inhibition. inhibition, %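 (tested at 6.7 µM)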. 0.3% of 24,000 active. AID 441, 2006;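 note: 0% = buffer alone and 100% = receptor blocker peptide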
Target sequence (P25090 whole entry, looked up): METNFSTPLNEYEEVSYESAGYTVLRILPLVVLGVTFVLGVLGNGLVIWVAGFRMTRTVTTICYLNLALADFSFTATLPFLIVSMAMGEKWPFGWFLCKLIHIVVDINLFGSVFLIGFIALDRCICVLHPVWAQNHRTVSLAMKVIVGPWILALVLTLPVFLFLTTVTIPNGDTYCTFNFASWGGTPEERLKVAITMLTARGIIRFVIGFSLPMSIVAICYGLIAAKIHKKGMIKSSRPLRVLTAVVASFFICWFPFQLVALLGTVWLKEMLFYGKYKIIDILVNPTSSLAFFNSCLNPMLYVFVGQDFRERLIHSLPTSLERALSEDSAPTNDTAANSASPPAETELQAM
* hit, by the source's call; i = inactive; / = not tested or not shown.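 Rule for the calls, unless noted: active = mean above 30%; inconclusive = self-fluorescent; inactive = the rest.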 Not all compounds are listed; rates above refer to the full screens.

The line under a structure holds: FPR ligand	VCAM-1 down imaging	VCAM-1 up imaging	VCAM-1 down	FPRL1 ligand
CCOC(=O)c1nnn(CC(=O)Nc2cccc(Cl)c2C)c1C(=O)OCC
→ 6	/	/	/	2
CSc1ccccc1NC(=O)CCn1c(=O)sc2ccccc21
→ 6	/	/	/	11
COc1ccc(S(=O)(=O)NC(CC(=O)NCC2CCCO2)c2ccco2)cc1 (stereo not drawn)
→ 2	/	/	/	-1
O=S(=O)(c1ccccc1)c1nc(-c2ccco2)oc1NCCCN1CCOCC1
→ 7	i	i	i	-1
Cc1ccc(-c2cc(C(F)F)n3ncc(C(=O)N4CCN(c5ccccn5)CC4)c3n2)cc1
→ 4	80%*	i	i	-1
CCOc1ccc(Cn2nnc(C(=O)Nc3ccc(OC)cc3OC)c2N)cc1
→ -4	i	i	i	-4
COc1cccc(-c2nc(CS(=O)CC(=O)NC3CC3)c(C)o2)c1 (stereo not drawn)
→ 22	/	/	/	0
COC(=O)C1=C(CSCc2ccco2)NC(=O)NC1c1cc(C)ccc1C (stereo not drawn)
→ -7	i	i	i	2
Cc1ccc(C2CC(c3ccco3)n3ncnc3N2)cc1 (stereo not drawn)
→ -7	/	/	/	0
Cc1noc(/C=C/N(C)C)c1S(=O)(=O)NC1CCCCC1
→ -4	/	/	/	0
Cc1cc(=O)n2nc(N3CCCC3C(=O)NCCCN3CCCCC3)sc2n1 (stereo not drawn)
→ 5	/	/	/	10
CCN1CCN(C(=O)c2cc3cc4cc(OC)ccc4nc3s2)CC1
→ -5	/	/	/	9
Cc1ccc(N2C(=O)C(Cl)=C(Nc3c(C)n(C)n(-c4ccccc4)c3=O)C2=O)cc1
→ 5	/	/	/	-2
COc1ccccc1-c1nc(C(F)(F)F)c(OC)o1
→ 5	i	i	i	0
N#CCCn1nnc2ccccc21
→ 2	/	/	/	-1
Cc1nonc1NC(=O)c1ccccc1Br
→ 10	i	i	i	0
Cn1c(Cl)cnc1C1CC(=O)c2cc(Cl)ccc2O1 (stereo not drawn)
→ -8	i	i	i	-7
CCN(CCNC(=O)Cn1c(=O)sc2ccccc21)c1ccccc1
→ 3	/	/	/	16
Cc1cccc(N2CCN(C(=O)c3cc4c(=O)n(C)c5ccccc5c4n3C)CC2C)c1 (stereo not drawn)
→ -1	/	/	/	-3
C=CCn1c(SCC(=O)NCC2CCCO2)nnc1C1CCCCC1 (stereo not drawn)
→ 0	i	i	i	-1
CCOn1c(=O)c(=O)n(OCc2ccccc2)c2ccccc21
→ -6	i	i	i	0
O=C(Nc1cccc2nsnc12)c1cccs1
→ 2	/	/	/	-1
CCC1Oc2ccc(C)cc2N(CC(=O)NCc2cccc(OC)c2)C1=O (stereo not drawn)
→ 1	/	/	/	10
CC1Cn2c(nnc2-c2cccc(N)c2)S1 (stereo not drawn)
→ 0	/	/	/	-3
CC(C)(C)n1ncc2c(=O)n(CC(=O)NC3CCCCC3)cnc21
→ 2	/	/	/	0
Cc1cc(NC(=O)CCCS(=O)(=O)c2nc(-c3cccs3)cc(C(F)(F)F)n2)no1
→ -7	/	/	/	15
COc1ccc(-c2nc(CS(=O)CC(=O)NCc3ccco3)c(C)o2)cc1OC (stereo not drawn)
→ -3	/	/	/	-3
CC(=O)C1C(c2ccc(F)cc2)NC(=O)NC1(O)C(F)(F)F (stereo not drawn)
→ 0	/	/	/	1
Cc1noc(/C=C/N(C)C)c1S(=O)(=O)N1CCCC(C(=O)NCc2cccs2)C1 (stereo not drawn)
→ 5	/	/	/	16
CC(C)c1[nH]nc2c1C1(CCN(Cc3ccccc3)CC1)C(C#N)=C(N)O2
→ -8	/	/	/	-12
COc1ccc(-n2c(=O)cc(N3CC(C)OC(C)C3)[nH]c2=O)cc1 (stereo not drawn)
→ -1	/	/	/	8
Cc1c(C(=O)O)sc2ncn(C)c(=O)c12
→ -2	i	i	i	1
CCOC(=O)c1c(C)c(C(=O)NCc2ccccn2)c(C)n1CC
→ 2	/	/	/	-5
Cc1nn(-c2ccc(F)cc2)c2c1cc(C#N)c1nc3ccccc3n12
→ -1	i	i	i	-1
CO/C([O-])=N/c1c[n+](-c2ccc(C)cc2)no1
→ -1	i	i	i	2
COc1cccc(OCC(O)CN2CCN(CCO)CC2)c1 (stereo not drawn)
→ -6	i	i	i	3
CCCC(=O)N1CC(=O)Nc2ccc(C)cc2C1c1ccc(F)cc1 (stereo not drawn)
→ -5	i	i	i	-11
COC(=O)CSc1nnc(CSc2nc(C)cc(C)n2)n1Cc1ccco1
→ -19	i	i	i	3
O=C1Nc2ccccc2C(O)(C(=O)NCc2ccc3c(c2)OCO3)N1c1ccccc1 (stereo not drawn)
→ -7	/	/	/	-5
COc1ccc(Cc2nc(-c3ccc(-n4cccc4)cc3)no2)cc1
→ 6	/	/	/	-2
O=C(N1CCN=C1SCc1cccnc1)C12CC3CC(CC(C3)C1)C2
→ 0	/	/	/	-3
CS(=O)(=O)N1CCCC(C(=O)NCCCN2CCOCC2)C1 (stereo not drawn)
→ 2	/	/	/	0
CCn1cc(C(=O)NCc2ccccn2)c(=O)c2cc(S(=O)(=O)N3CCCCC3)ccc21
→ 3	/	/	/	-3
CCOC(=O)Cc1nnc2c(Nc3ccc(C)cc3)nc3nonc3n12
→ -7	i	i	i	-2
COc1ccc(S(=O)(=O)CCC(=O)Nc2c(C)n(C)n(-c3ccccc3)c2=O)cc1
→ -5	/	/	/	-18
COc1ccc(CCNC(=O)C2CCN(Cc3nc(-c4ccccc4C)oc3C)CC2)cc1OC
→ 0	/	/	/	-2
O=C(c1ccco1)N1CCN(CCCCN2C(=O)c3ccccc3C2=O)CC1
→ 4	i	i	i	-6
CCCCCCNC(=O)Cc1nc2nc(C)cc(C)n2n1
→ 2	/	/	/	3
CC(C(=O)N1CCCCC1)n1sc2ccccc2c1=O (stereo not drawn)
→ 1	i	i	i	-2
CN(C)S(=O)(=O)c1ccc(/C(O)=C2/C(=O)C(=O)N(Cc3cccnc3)C2c2ccco2)cc1 (stereo not drawn)
→ -2	/	/	/	-2
Cc1cc(NC(=O)COc2ncnc3sc(C)c(C)c23)no1
→ 0	i	i	i	0
CCOC(=O)N1CCN(C(=O)CSc2nnc(CNC(=O)c3c(F)cccc3Cl)o2)CC1
→ 9	/	/	/	5
CC(C)(C)SCCNC(=O)CN1C(=O)c2ccccc2S1(=O)=O
→ 2	i	i	i	0
CCOCCCNC(=O)CN1C(=O)CSc2ccccc21
→ -1	/	/	/	1
COC(=O)CNS(=O)(=O)c1ccc(Cc2ccc(S(=O)(=O)NCC(=O)OC)cc2)cc1
→ -3	/	/	/	-14
Cc1cccc(Cn2c(N(C)CCO)nc3c2c(=O)[nH]c(=O)n3C)c1
→ -10	/	/	/	-6
CCc1nnc(NC(=O)CSc2nnc(-c3ccoc3C)n2CC(C)C)s1
→ 11	i	i	i	2
COc1cc(C2C(C#N)=C(N)Oc3n[nH]c(-c4ccccn4)c32)cc(OC)c1OC (stereo not drawn)
→ 1	/	/	/	2
Cc1cccc2nc(Cn3c(=O)n(CCC(=O)NCc4ccco4)c(=O)c4sccc43)cc(=O)n12
→ 2	/	/	/	0
O=C1CCc2cc(S(=O)(=O)N3CCN(c4cccc(Cl)c4)CC3)ccc2N1
→ -10	/	/	/	-12

Continued:
The line under a structure holds: FPR ligand	VCAM-1 down imaging	VCAM-1 up imaging	VCAM-1 down	FPRL1 ligand
COc1ccc(C2C(C(=O)NC(C)C)c3ccccc3C(=O)N2C)cc1OC (stereo not drawn)
→ -3	/	/	/	5
CC(C)NC(=O)C(C)n1cccc1C(=O)c1ccccc1 (stereo not drawn)
→ -2	/	/	/	0
Cn1c(=O)c2c(nc(SCC(=O)O)n2Cc2cccc(C(F)(F)F)c2)n(C)c1=O
→ -2	i	i	i	2
Cc1ccccc1-c1nc(CS(=O)(=O)CC(=O)NCCCN2CCCC2)c(C)o1
→ -4	/	/	/	4
O=C(CCNS(=O)(=O)c1cccc2nsnc12)N1CCc2ccccc21
→ -12	/	/	/	-12
COc1cccc(C2/C(=C(\O)c3ccc4c(c3)OCCO4)C(=O)C(=O)N2CCN(C)C)c1 (stereo not drawn)
→ -6	/	/	/	7
CCOC(=O)N1CCN(S(=O)(=O)c2cc(Br)cc3c2N(C(=O)CC)CC3)CC1
→ -6	/	/	/	-13
COc1ccc(CCNC(=O)c2cc(C(C)C)on2)cc1OC
→ -3	i	i	i	-4
CN1CCN(CCCNC(=O)c2cc3c(=O)oc4ccccc4c3s2)CC1
→ -1	/	/	/	3
COc1cc(-c2nc(-c3cccc(C(F)(F)F)c3)no2)cc(OC)c1OC
→ -2	i	i	i	-3
CC(C)(C)n1ncc2c(=O)n(CC(=O)Nc3ccc4c(c3)OCO4)cnc21
→ -6	/	/	/	-2
Cc1ccc(C)c(OCCCC(C)(C)C(=O)O)c1
→ 0	i	i	i	-4
Cn1c(C(=O)N2CCc3ccccc3C2)cc2oc3ccccc3c21
→ 1	/	/	/	1
COc1ccc(Cn2nnc(C(=O)Nc3ccc(F)cc3)c2N)cc1
→ -18	/	/	/	-11
CCN(CC)CCNC(=O)c1cc(S(C)(=O)=O)ccc1OC
→ 0	i	i	i	-2
O=c1[nH]n(-c2cccc3cccnc23)c(=O)c2ccccc12
→ 0	/	/	/	1
Cc1nc2c(C(=O)NCc3ccc(F)cc3)c[nH]n2c(=O)c1Cl
→ 5	/	/	/	-2
O=C(CN1C(=O)c2ccccc2C1=O)Nc1ccc(S(=O)(=O)NCC2CCCO2)cc1 (stereo not drawn)
→ -3	i	i	i	-1
Cc1cccc(-c2noc(CCC(=O)Nc3ccccc3)n2)c1
→ 1	i	i	i	7
Cc1nc(-c2cnn(-c3ccccc3)c2)c2cc(C)oc2n1
→ 10	i	i	i	-1
O=P(O)(O)c1ccccc1OCCOCCOc1ccccc1P(=O)(O)O
→ 1	i	i	i	2
CC(C)(C)n1nc2c(c1NC(=O)c1ccc(S(=O)(=O)N3CCCCC3)cc1)CS(=O)C2 (stereo not drawn)
→ -9	/	/	/	2
COc1ccc(N(C)S(=O)(=O)c2c(C)[nH]c(=O)[nH]c2=O)c(OC)c1
→ -4	/	/	/	-9
CCC(C)c1ccc(NC(=O)C2CC2)cc1 (stereo not drawn)
→ 1	i	i	i	0
O=C(Cn1nnc(-c2ccc(CN3CCOCC3)cc2)n1)NC1CCCCC1
→ 5	i	i	i	6
COC(=O)c1ccc(Cn2cnc3c(cnn3-c3ccc(F)cc3)c2=O)o1
→ 17	/	/	/	8
O=C(O)CCC(=O)N1CCc2cc(S(=O)(=O)N3CCCCC3)ccc21
→ -1	/	/	/	-2
COc1ccc(OCC(=O)N2CCN(C(=O)c3cccs3)CC2)cc1
→ -6	i	i	i	0
CC1CCN(C(=O)c2ccccc2NC(=O)c2cccc(S(=O)(=O)N3CCOCC3)c2)CC1
→ 7	/	/	/	2
CCCCSc1nc2c(cnn2-c2ccc(F)cc2)c(=O)[nH]1
→ -6	i	i	i	1
CCN(CC)CCNC(=O)C1CCC(=O)N1CCc1ccccc1 (stereo not drawn)
→ 3	/	/	/	-4
CC(C)CCn1c(Cl)nc2c1c(=O)n(C)c(=O)n2C
→ 1	/	/	/	2
CCOC(=O)N1CCC(NC(=O)c2cc(C(=O)Nc3ccc(OC)c(OC)c3)ccc2CO)CC1
→ 15	/	/	/	34*
O=C(Nc1ccccc1C(F)(F)F)N1CCN(c2ccc3nnc(-c4ccc(F)cc4)n3n2)CC1
→ -3	/	/	/	20
O=C(Nc1ccccc1C(=O)N1CCOCC1)C1CCC(=O)N1C1CCCC1 (stereo not drawn)
→ -1	i	i	i	1
Cc1ccc(C2C3=C(CCCC3=O)Nc3nc(SCC(=O)NCc4ccco4)[nH]c(=O)c32)cc1 (stereo not drawn)
→ 10	/	/	/	8
Cc1cc(=O)oc2c1c(C)nn2-c1ccc(C(=O)OC(C)C)cc1
→ -6	i	i	i	-1
O=C(NCCc1ccc(Cl)cc1)C1CCN(S(=O)(=O)N2CCCC2)CC1
→ -1	/	/	/	2
Cc1ccc(S(=O)(=O)NCCNC(=O)CN2CCCC2)cc1
→ -2	/	/	/	3

An excerpt of the results above, for reference:
The line under a structure holds: FPR ligand	VCAM-1 down imaging	VCAM-1 up imaging	VCAM-1 down	FPRL1 ligand
O=P(O)(O)c1ccccc1OCCOCCOc1ccccc1P(=O)(O)O
→ 1	i	i	i	2
CC(C)(C)n1nc2c(c1NC(=O)c1ccc(S(=O)(=O)N3CCCCC3)cc1)CS(=O)C2 (stereo not drawn)
→ -9	/	/	/	2
COc1ccc(N(C)S(=O)(=O)c2c(C)[nH]c(=O)[nH]c2=O)c(OC)c1
→ -4	/	/	/	-9

Screening results: PubChem BioAssay, several laboratories
